High-throughput results (PubChem BioAssay)
Ecoli rRNA inh = selective bacterial rRNA inhibition in E. coli | E. coli WT GFP vs humanized-ribosome RFP mutants, fluorescence, 24 h; stronger effect = lower value; DMSO median 0, no signal -100 | AID 720706 | GFP signal change (wild-type ribosome), % (concentration not given with the values) | actives 1.6% (n = 350,000);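 active = significant combined selectivity score with lowered wild-type GFP, culture density cut under 30%, mutant RFP and density less affected; inactive = any of these conditions unmet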; note: one replicate is shown; some compounds called inactive have numbers as strong as hits
Ecoli rRNA inh OD600 = also measured in Ecoli rRNA inh; calls as there; OD600 change, %; measured here: OD600 growth;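 optical density of the mix in the first replicate; 0 = DMSO median and -100 = no signal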
Ecoli rRNA inh RFP = second read-out of Ecoli rRNA inh, no call of its own (marks repeat the call); RFP signal change, %; measured here: RFP humanized mutant strains;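 first replicate; 0 = DMSO median and -100 = no signal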
An asterisk follows results filed as active. A portion of the library; rates above refer to the full screens.

Below each compound: Ecoli rRNA inh, Ecoli rRNA inh OD600, Ecoli rRNA inh RFP
C[C@@H]1CCCCO[C@@H](CN(C)C(=O)CCC(F)(F)F)[C@H](C)CN([C@H](C)CO)C(=O)c2cc(N(C)C)ccc2O1
 : -0.4, -2.4, -1.8
COc1cc(CN2CC3(CCN(C(=O)Nc4cccc(F)c4)CC3)c3c(n(C)c4cc(OC)ccc34)[C@H]2CO)cc(OC)c1
 : 2.0, -6.9, 7.5
CO[C@@H]1CN(C)C(=O)c2cc(NC(=O)c3cccc(Oc4ccccc4)c3)ccc2OC[C@H](C)NC[C@H]1C
 : -2.9, -10.7, 24.8
CCC(=O)N1CC(=O)N2[C@H](CO)[C@@H](c3ccc(-c4ccccc4F)cc3)[C@@H]2C1
 : 6.0, 11.5, 6.2
N#C[C@H]1[C@@H](c2ccccc2C2=CCCCC2)[C@H](CO)N1S(=O)(=O)c1cccc(F)c1
 : -31.3, -57.1, 4.4
C[C@H]1CN([C@@H](C)CO)C(=O)Cc2cc(NS(=O)(=O)c3ccc(F)cc3)ccc2O[C@@H]1CN(C)C(=O)Nc1ccc2c(c1)OCO2
 : 2.6, 10.6, -2.5
O=C(C[C@@H]1C[C@H]2c3cc(NC(=O)NC4CCCCC4)ccc3O[C@H]2[C@@H](CO)O1)NC1CCCC1
 : 5.5, 6.8, -1.2
C[C@@H]1CN([C@H](C)CO)C(=O)c2cccc(NC(=O)Nc3ccc(F)cc3)c2O[C@H]1CN(C)S(=O)(=O)c1cn(C)cn1
 : -1.9, 0.9, -1.1
CC(C)NC(=O)Nc1ccc2c(c1)C(=O)N([C@H](C)CO)C[C@H](C)[C@@H](CN(C)C(=O)c1ccncc1)OCCCC[C@@H](C)O2
 : -1.6, -2.8, -5.2
CO[C@H]1CN(C)C(=O)c2ccc(NC(=O)Nc3cc(F)ccc3F)cc2OC[C@H](C)N(C(=O)c2cnccn2)C[C@H]1C
 : 1.5, -2.7, -0.1
C[C@@H]1CN([C@H](C)CO)C(=O)c2cc(-c3ccncc3)cnc2O[C@@H]1CN(C)C(=O)C1CC1
 : 7.3, 0.9, -1.6
COc1ccc(S(=O)(=O)Nc2ccc3c(c2)C(=O)N([C@@H](C)CO)C[C@@H](C)[C@H](CN(C)C(=O)NC(C)C)O3)cc1
 : 4.9, 11.2, -0.1
C[C@H](CO)N1C[C@H](C)[C@H](CN(C)S(=O)(=O)c2ccc(F)cc2)Oc2ncc(C#Cc3ccccc3)cc2C1=O
 : 1.7, -5.2, 1.2
CC(C)[C@@H]1COCc2cn(nn2)CC[C@@H](C)C(=O)N1
 : 5.1, 4.9, -3.3
C/C=C/c1ccc([C@H]2[C@@H](CO)N(C(=O)C3CCC3)[C@@H]2CNC(=O)CN(C)C)cc1
 : -0.1, -1.0, -1.4
COc1ccc2c3c(n(C)c2c1)[C@@H](CO)N(C)CC31CN(C(=O)Nc2cccc(F)c2)C1
 : -2.0, -1.0, 3.4
C[C@@H]1CCCCO[C@@H](CN(C)C)[C@H](C)CN([C@@H](C)CO)C(=O)c2cc(NC(=O)C3CCCCC3)ccc2O1
 : 4.0, 4.7, -1.8
CCCN1C[C@H](C)[C@@H](OC)CN(C)C(=O)c2cc(NC(=O)Nc3cccc(OC)c3)ccc2OC[C@H]1C
 : -3.7, -0.1, 2.9
COc1ccc(S(=O)(=O)Nc2cccc3c2O[C@@H](CN(C)Cc2ccc(Cl)c(Cl)c2)[C@@H](C)CN([C@@H](C)CO)C3=O)cc1
 : -3.1, -12.0, 4.5
C[C@H](CO)N1C[C@H](C)[C@@H](CN(C)C(=O)C2CC2)Oc2ncc(C3=CCCC3)cc2C1=O
 : -0.9, -2.3, -3.7
C[C@@H]1CN([C@@H](C)CO)S(=O)(=O)c2ccc(C3=CCCCC3)cc2O[C@@H]1CN(C)CC1CC1
 : 1.6, 7.9, 5.1
CCCC(=O)N1CC2(C1)CN(Cc1ccncc1)[C@@H](CO)c1[nH]c3cc(OC)ccc3c12
 : 0.0, 16.1, -0.4
Cc1ccc(S(=O)(=O)Nc2ccc3c(c2)C(=O)N([C@H](C)CO)C[C@@H](C)[C@H](CN(C)Cc2ccc(C(F)(F)F)cc2)O3)cc1
 : -1.2, -4.9, -0.3
O=C(c1cc2c(c(-c3cccc(Br)c3)n1)[C@@H](CCO)NC2)N1CCCCC1
 : -0.5, 1.1, 4.8
CC(=O)N1CC(=O)N2[C@H](CO)[C@@H](c3ccc(-c4ccccc4)cc3)[C@@H]2C1
 : 3.8, 2.9, 2.1
CN1C(=O)c2cc(NC(=O)Nc3ccccc3F)ccc2OC[C@@H]2O[C@H](CC(=O)NCCc3ccncc3)CC[C@H]21
 : 0.4, 3.8, -0.9
COc1ccccc1-c1ccc([C@H]2[C@@H](CO)N[C@@H]2CNC(=O)C2CCC2)cc1
 : 0.3, -5.4, 4.5
C[C@@H]1CN(C)C(=O)Cc2ccccc2O[C@H]1CN(C)S(C)(=O)=O
 : -1.1, 5.3, -1.5
C[C@@H]1CN([C@@H](C)CO)C(=O)Cc2cc(NC(=O)Nc3ccc(C(F)(F)F)cc3)ccc2O[C@@H]1CN(C)S(=O)(=O)c1ccc(F)cc1
 : 6.1, 7.2, 2.1
CC(=O)Nc1cccc2c1O[C@H](CN(C)C(=O)OC(C)(C)C)[C@H](C)CN(C)C2=O
 : 0.6, 0.9, 1.2
CCC(=O)Nc1ccc2c(c1)C(=O)N(C)C[C@@H](OC)[C@@H](C)CN(C(=O)CN1CCOCC1)[C@@H](C)CO2
 : 2.3, 1.7, -1.6
CC(C)C#Cc1ccc([C@H]2[C@H]3CN(Cc4ccccn4)CCCCN3[C@H]2CO)cc1
 : 6.8, 7.2, 0.3
CNC[C@@H]1OCCCC[C@H](C)Oc2ccc(NC(=O)Nc3ccccc3)cc2C(=O)N([C@H](C)CO)C[C@@H]1C
 : 6.5, 3.4, 0.1
COc1ccc([C@H]2C/C=C\C[C@H](c3cccc(Cl)c3)NC(=O)[C@@H](c3ccccc3)CC(=O)N2)c(OC)c1
 : 3.6, 4.2, -1.6
C[C@H]1CN([C@@H](C)CO)C(=O)c2cc(NC(=O)Nc3ccccc3)ccc2O[C@H]1CN(C)Cc1ccc(C(=O)Nc2ccccc2N)cc1
 : 2.4, 8.4, -0.2
CNC[C@H]1Oc2ccccc2CC(=O)N(C)C[C@@H]1C
 : 2.8, -1.9, -0.8
O=C(Nc1ccc(F)cc1)N1C[C@@H]2[C@H](c3ccccc31)[C@H](CO)N2C(=O)c1ccncc1
 : 1.7, 10.5, 0.1
CN1[C@@H]2Cn3c(ccc(-c4ccc(F)cc4)c3=O)[C@H]1[C@@H](C(=O)NC1CCC1)[C@@H]2CO
 : -0.2, 2.3, -2.5
CNC[C@@H]1OCCCC[C@@H](C)Oc2ccc(NC(=O)Nc3ccc(C(F)(F)F)cc3)cc2C(=O)N([C@H](C)CO)C[C@@H]1C
 : 4.6, 2.0, 4.3
CO[C@@H]1CN(C)C(=O)c2ccc(NC(=O)C3CC3)cc2OC[C@H](C)N(Cc2cncnc2)C[C@@H]1C
 : -1.1, 4.3, -3.0
C[C@H](O)C#Cc1ccc2c(c1)O[C@@H](CN(C)CC1CC1)[C@@H](C)CN([C@@H](C)CO)S2(=O)=O
 : -0.8, -0.8, 0.3
CO[C@@H]1CN(C)C(=O)c2cc(NC(=O)CC(F)(F)F)ccc2OC[C@H](C)N(C(=O)C2CC2)C[C@@H]1C
 : 1.7, -2.1, 1.0
CNC[C@H]1OCCCC[C@@H](C)Oc2ccc(NC(=O)c3ccccc3)cc2C(=O)N([C@H](C)CO)C[C@H]1C
 : 3.3, 2.1, -1.1
COc1ccc(NC(=O)N2CCCCN3[C@H](CO)[C@@H](c4ccc(C#Cc5ccccn5)cc4)[C@H]3C2)cc1
 : 5.4, 7.8, -1.6
Cc1ccccc1S(=O)(=O)Nc1ccc2c(c1)C(=O)N(C)[C@@H]1CC[C@@H](CC(=O)O)O[C@@H]1CO2
 : 1.8, -1.6, -0.7
C[C@@H]1CN([C@H](C)CO)C(=O)c2cccc(NC(=O)c3cnccn3)c2O[C@@H]1CN(C)C(=O)NC1CCCCC1
 : -1.8, -0.7, -1.0
C[C@H](CO)N1C[C@H](C)[C@@H](CN(C)CC2CCCCC2)Oc2c(NC(=O)Cc3cn(C)c4ccccc34)cccc2C1=O
 : 0.4, -4.8, 25.1
C[C@@H]1CN([C@@H](C)CO)C(=O)c2cccc(NC(=O)c3nc4ccccc4s3)c2O[C@H]1CN(C)Cc1ccccc1
 : -0.8, 10.2, 0.7
CCCN(C)C[C@H]1Oc2cc(-c3ccccc3C)ccc2S(=O)(=O)N([C@@H](C)CO)C[C@H]1C
 : -1.4, 6.2, -0.2
CNC[C@H]1Oc2ccc(N(C)C)cc2CC(=O)N(C)C[C@H]1C
 : 1.7, 7.5, -1.8
Cc1ccccc1-c1cnc2c(c1)C(=O)N([C@@H](C)CO)C[C@H](C)[C@H](CN(C)Cc1cncnc1)O2
 : 1.6, 10.8, -0.7
O=C1CCC(=O)N[C@@H](c2ccc(F)cc2)C/C=C\C[C@H](c2ccc(F)cc2)N1
 : 3.5, 3.6, 1.3
CO[C@H]1CN(C)C(=O)c2ccc(NS(=O)(=O)c3ccc(C)cc3)cc2OC[C@@H](C)N(C(=O)NC(C)C)C[C@@H]1C
 : -2.9, -2.4, 1.2
C[C@@H]1CNC(=O)[C@H](Cc2ccc(C(F)(F)F)cc2)CCn2nncc2COC1
 : -0.7, -3.9, -0.1
C[C@@H]1CN([C@H](C)CO)C(=O)c2cc(NC(=O)Nc3ccccc3)ccc2O[C@@H](C)CCCCO[C@H]1CN(C)C(=O)NC1CCCCC1
 : 2.2, 4.9, -1.4
C[C@@H]1CCCCO[C@@H](CN(C)C(=O)Cc2ccccc2)[C@H](C)CN([C@H](C)CO)C(=O)c2cc(N(C)C)ccc2O1
 : -2.8, -0.2, -3.0
CC(=O)N1[C@H](CO)[C@@H]2c3ccccc3N(C(=O)c3ccc(F)cc3)C[C@@H]21
 : 4.0, 4.2, -3.0
COc1ccc2c3c([nH]c2c1)[C@H](CO)N(S(=O)(=O)c1ccc(C)cc1)CC31CCN(C(=O)Cc2cccnc2)CC1
 : -2.2, 10.8, -0.7
C[C@H](CO)N1C[C@H](C)[C@H](CN(C)S(=O)(=O)c2ccccc2)Oc2ncc(C#CC(C)(C)O)cc2C1=O
 : 14.2, 13.6, -3.0
Cc1ccc(S(=O)(=O)N(C)C[C@@H]2Oc3c(NS(=O)(=O)c4cn(C)cn4)cccc3C(=O)N([C@@H](C)CO)C[C@@H]2C)cc1
 : 3.6, 1.7, 1.2

One compound at a time (already shown):
Record of O=C1CCC(=O)N[C@@H](c2ccc(F)cc2)C/C=C\C[C@H](c2ccc(F)cc2)N1 : Ecoli rRNA inh: 3.5; Ecoli rRNA inh OD600: 3.6; Ecoli rRNA inh RFP: 1.3
Record of Cc1ccccc1-c1cnc2c(c1)C(=O)N([C@@H](C)CO)C[C@H](C)[C@H](CN(C)Cc1cncnc1)O2 : Ecoli rRNA inh: 1.6; Ecoli rRNA inh OD600: 10.8; Ecoli rRNA inh RFP: -0.7
Record of C[C@@H]1CCCCO[C@@H](CN(C)C(=O)Cc2ccccc2)[C@H](C)CN([C@H](C)CO)C(=O)c2cc(N(C)C)ccc2O1 : Ecoli rRNA inh: -2.8; Ecoli rRNA inh OD600: -0.2; Ecoli rRNA inh RFP: -3.0

(listing goes on)
Below each compound: Ecoli rRNA inh, Ecoli rRNA inh OD600, Ecoli rRNA inh RFP
Cc1noc(C)c1NC(=O)Nc1cccc2c1O[C@@H](CN(C)C(=O)Nc1ccc(F)cc1)[C@@H](C)CN([C@@H](C)CO)C2=O
 : -4.2, -6.0, -0.2
C[C@H](CO)N1C[C@H](C)[C@H](CN(C)C(=O)C2CCCCC2)Oc2ncc(C#CC3CC3)cc2C1=O
 : -0.6, 13.6, -1.0
C[C@@H]1CN([C@@H](C)CO)C(=O)c2cc(-c3ccccc3)cnc2O[C@@H]1CN(C)C(=O)c1cccc(F)c1
 : 2.9, 10.0, -2.4
CC(=O)N(C)C[C@H]1Oc2ccc(NC(=O)NC(C)C)cc2CC(=O)N(C)C[C@@H]1C
 : 4.7, 12.7, -1.8
COc1ccccc1NC(=O)N[C@@H]1CC[C@H](CCNS(=O)(=O)c2ccccc2)O[C@H]1CO
 : 1.9, 8.5, -6.0
Cc1noc(C)c1NC(=O)Nc1ccc2c(c1)C(=O)N([C@H](C)CO)C[C@@H](C)[C@@H](CN(C)S(=O)(=O)c1ccccc1)O2
 : 2.3, 7.3, -3.4
C[C@H](CO)N1C[C@H](C)[C@@H](CN(C)S(=O)(=O)c2ccc(F)cc2)Oc2c(NS(C)(=O)=O)cccc2C1=O
 : -3.7, 1.3, -2.2
CN1c2ccc(C#Cc3cccnc3)cc2[C@@H]2[C@@H](CCN2C(=O)Cc2cccnc2)[C@@H]1CO
 : -5.9, 2.6, 4.3
C[C@@H]1CN([C@H](C)CO)S(=O)(=O)c2ccc(C3=CCCC3)cc2O[C@@H]1CN(C)S(C)(=O)=O
 : -0.7, -1.3, 2.2
C[C@H](CO)N1C[C@H](C)[C@@H](CN(C)C(=O)Cc2cccnc2)Oc2ncc(C#CC3(O)CCCC3)cc2C1=O
 : -0.2, 4.6, -4.1
CCCN(C)C[C@H]1Oc2cc(C3=CCCC3)ccc2S(=O)(=O)N([C@@H](C)CO)C[C@@H]1C
 : -1.9, -5.2, 4.0
O=C1N[C@H](Cc2ccccc2)COCc2cn(nn2)CC[C@H]1Cc1ccc(-c2ccccc2)cc1
 : -2.7, -6.1, 0.4
